Screens (PubChem)
INS promoter inh: inhibitors of insulin promoter-driven GFP, primary screen, imaging, TRM-6 cells (human fetal islet line), eGFP reporter, cell count; AID 1273, 2008; inhibition, % at 2 µM; reporter expression induced with tamoxifen; actives 0.9% (n = 130,000);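 active = inhibition above the mean plus 3 SD, with well images judged a real hit on visual review, cut at about 60% in these data, passing the limit was not always enough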
GALR2 agonist: GALR2 receptor agonists, primary screen, cell-based. Galanin receptor type 2 (Homo sapiens), O43603. AID 803, 2007. actives 0.48% (n = 140,000). GALR2-expressing cells, agonist activation read-out. activation, %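 (tested at 5 µM)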;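 active = above mean plus 3 SD of all compounds, about 5% in these data, not always enough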;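 note: 0% = vehicle buffer wells and 100% = reference agonist at full effect; tested in CHO reporter cells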
Target sequence (O43603 whole entry, looked up): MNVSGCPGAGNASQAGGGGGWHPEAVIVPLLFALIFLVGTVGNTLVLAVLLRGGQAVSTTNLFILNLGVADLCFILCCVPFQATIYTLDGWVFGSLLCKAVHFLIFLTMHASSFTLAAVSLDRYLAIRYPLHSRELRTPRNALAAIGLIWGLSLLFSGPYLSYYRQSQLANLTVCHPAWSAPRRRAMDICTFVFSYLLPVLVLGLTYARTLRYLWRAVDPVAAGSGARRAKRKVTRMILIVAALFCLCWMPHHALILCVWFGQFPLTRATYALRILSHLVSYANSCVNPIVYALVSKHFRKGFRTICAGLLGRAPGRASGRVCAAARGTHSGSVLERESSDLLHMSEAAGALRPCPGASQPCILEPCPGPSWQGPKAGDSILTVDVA
HSV replic up: enhancers of HSV replication in host cells, fold increase, host cell viability; actives 0.005% (n = 220,000); HSV replication augmentation in cells; AID 1956, 2009; maximum fold increase;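 active = peak rise of 1.5-fold or more in the series; tested in PC3 cells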;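 note: first round at 10 µM; read as green reporter fluorescence; hits show the peak of a series up to 25 µM; 1 = signal of infected wells without compound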
PKD1 inh: inhibitors of human PKD1 kinase, biochemical, fluorescence polarization; PKD1 kinase fluorescence polarization assay; Serine/threonine-protein kinase D1 (Homo sapiens), Q15139; inhibition, %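 (about 10 µM by stock and volumes)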; actives 0.056% (n = 200,000); AID 797, 2007;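 active = inhibition of 50% or more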;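 note: controls were vehicle for no effect and a reference inhibitor for full effect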
RGS16-Gao HTS: modulators of RGS16 binding to Galphao, primary screen, biochemical, human proteins, multiplexed bead flow cytometry; Regulator of G-protein signaling 16 (Homo sapiens) + Guanine nucleotide-binding protein …; bead-based flow cytometry RGS16-Galphao binding, fluorescence; actives lie on both sides; binding response (% of control), % at 10 µM; actives 0.38% (n = 220,000);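 active = below 25% or above 175%, edge rows of some plates excepted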;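 note: Galphao activated by GDP with aluminum fluoride before binding; 100% = wells without compound and 0% = beads without RGS; some results beyond the cut were filed as inactive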
Target sequence (O15492 whole entry, looked up): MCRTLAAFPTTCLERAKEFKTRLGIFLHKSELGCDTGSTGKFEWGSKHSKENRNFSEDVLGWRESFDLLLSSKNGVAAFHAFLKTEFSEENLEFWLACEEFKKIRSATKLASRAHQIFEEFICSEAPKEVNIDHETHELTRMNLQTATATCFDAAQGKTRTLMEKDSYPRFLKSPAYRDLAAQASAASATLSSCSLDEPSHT
Target sequence (P09471 whole entry, looked up): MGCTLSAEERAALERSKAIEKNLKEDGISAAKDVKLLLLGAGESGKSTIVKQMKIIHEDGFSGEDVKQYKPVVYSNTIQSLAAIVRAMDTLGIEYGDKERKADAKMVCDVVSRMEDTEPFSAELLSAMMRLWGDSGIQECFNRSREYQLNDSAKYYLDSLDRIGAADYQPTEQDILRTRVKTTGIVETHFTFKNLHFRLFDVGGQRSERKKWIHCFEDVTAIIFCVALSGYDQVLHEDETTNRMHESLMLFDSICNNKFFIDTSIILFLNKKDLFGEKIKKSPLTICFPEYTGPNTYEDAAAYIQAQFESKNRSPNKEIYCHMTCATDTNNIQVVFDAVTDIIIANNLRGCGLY
INS promoter inh cell count: recorded beside INS promoter inh, whose call it bears; normalized cell count, %; measured here: cell count, toxicity; reference of the scale not given here;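 cells exposed to compound for 48 h; stained nuclei by imaging scaled within each plate; lower means fewer cells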
HSV replic up primary fold: second read-out of HSV replic up, no call of its own (marks repeat the call); fold increase; compound at 10 µM; measured here: primary screen fold increase 10 uM; tested in PC3 cells;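 GFP signal in the first replicate; 1 = infected wells without compound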
An asterisk follows results filed as active; i = inactive; / = no result given.

SMILES,INS promoter inh,INS promoter inh cell count,GALR2 agonist,HSV replic up,HSV replic up primary fold,PKD1 inh,RGS16-Gao HTS
N#Cc1ccc(CSc2ncnc3c2cnn3Cc2ccccc2)cc1,/,/,-1.8,i,0.93,5,106
CC(=O)c1cccc(NC2c3ncccc3C(=O)N2Cc2ccco2)c1 (centres undefined),-14,159,-2.1,i,0.97,0,77
Cc1cc(C)c(S(=O)(=O)NCC2CCC(C(=O)NCc3ccccn3)CC2)c(C)c1 (centres undefined),/,/,/,i,1.1,-2,99
Cc1nc(NC(N)=S)sc1C(=O)Nc1ccccc1,14,116,-2.7,i,0.9,-6,97
O=C(N/N=C\c1cccc([N+](=O)[O-])c1O)C1COc2ccccc2O1 (centres undefined),/,/,-0.4,i,0.93,-1,78
CNc1nc(-c2ccc(OC)cc2)c(-c2ccc(OC)cc2)s1,/,/,/,i,0.98,-2,80
CCOC(=O)c1ccc(NC(=O)NCc2ccn(CC)n2)cc1,54,110,-0.4,i,0.6,12,101
CC1CCN(c2ccccc2NC(=O)c2ccc(F)cc2)CC1,-34,65,-0.2,i,1.1,4,103
Fc1ccc(-c2nc3ccccc3c3nc4ccccc4n23)cc1,48,99,0.3,i,1,3,101
CCCCn1c(SCC(=O)Nc2nnc(C)s2)nnc1-c1ccncc1,/,/,/,i,1,-4,112
Cc1cc(C)nc(SCc2cc(=O)c(OC(=O)c3ccc(S(=O)(=O)N(C)C)cc3)co2)n1,/,/,-0.9,i,1,-4,84
CC1CC(=O)c2cn3c(nc2C1)nc1ccccc13 (centres undefined),-25,104,-0.9,i,1.1,-3,105
Cc1c(/C=N/NC(=O)c2cccnc2)c2ccccc2n1Cc1ccccc1,i,124,/,i,0.88,-1,115
C1CCC2(CC1)C1=C(CCCC1)Nc1nnnn12,16,115,-2.8,i,0.83,-10,101
CC(=NCCCN(C)C)C1=C(O)c2ccccc2C1=O,6,126,-2.1,i,0.92,-1,106
Cc1cc2nc(-c3cccnc3SCC(=O)NC3CC3)[nH]c2cc1C,/,/,/,i,0.97,3,102
CCCCNC(=S)N(Cc1c(C)noc1C)c1ccccc1,6,134,0.5,i,0.98,3,101
CC(C)(C)SCCNS(=O)(=O)c1ccc(C#N)cc1,/,/,/,i,1.4,/,105
CC1CCCN(C(=O)CSCC(=O)Nc2nc(-c3cccs3)cs2)C1 (centres undefined),/,/,-3.0,i,0.78,-6,100
O=C(NCc1ccc(F)cc1)C1CCCN(S(=O)(=O)c2cccc3nsnc23)C1 (centres undefined),-7,95,-1.7,i,0.72,-7,107

Brought forward from above: 2 entries, then new ones.
SMILES,INS promoter inh,INS promoter inh cell count,GALR2 agonist,HSV replic up,HSV replic up primary fold,PKD1 inh,RGS16-Gao HTS
CC1CCCN(C(=O)CSCC(=O)Nc2nc(-c3cccs3)cs2)C1 (centres undefined),/,/,-3.0,i,0.78,-6,100
O=C(NCc1ccc(F)cc1)C1CCCN(S(=O)(=O)c2cccc3nsnc23)C1 (centres undefined),-7,95,-1.7,i,0.72,-7,107
COCCNC(=O)NC(=O)COC(=O)c1ccc2[nH]c3c(c2c1)CCCC3,/,/,/,i,0.94,0,104
Cc1cc(C(=O)Nc2c(C)cccc2C)n(-c2ccccc2)n1,/,/,-0.9,i,0.88,5,113
COc1ccc(CN2C(=O)C(O)(CC(=O)c3c(C)n[nH]c3C)c3ccccc32)cc1OC (centres undefined),3,114,-1.8,i,0.82,1,102
COC(=O)COC(=O)c1ccc(Oc2nc(OC)nc(N(C)C)n2)cc1,/,/,-1.7,i,0.95,-6,144
CCN(CC)C(=O)c1sc2[nH]c(=S)n(-c3ccccc3)c(=O)c2c1C,10,85,-0.3,i,0.99,2,101
C#CCOCCOCCOCCNc1nc(N2CCN(C(=O)[C@H](CCCCN)n3cc(C(N)[C@H](C)CC)nn3)CC2)nc(N2CCN(C(=O)[C@H](CCC(=O)O)n3cc(C(N)[C@H](C)CC)nn3)CC2)n1 (some centres undefined),/,/,/,/,/,-8,101
COc1ccc2c(C)c(Cc3ccccc3)c(=O)oc2c1OC,/,/,/,i,0.94,-4,104
COc1ccc(-c2nc(C#N)c(NCC3CCCO3)o2)cc1 (centres undefined),-50,91,-2.3,i,0.7,-13,93
C=CCCOc1ccccc1C(N)=O,/,/,/,i,1,/,104
Cc1cccc(NC2=NC(=S)N(CC#N)C23CCCCC3)c1,62,124,0.2,i,0.97,-3,73
O=C(Cn1c(=O)oc2ccccc21)N1CCCCC1,36,118,-1.5,i,0.98,-2,99
COC(=O)c1ccc([C@H]2C=C(C(=O)O)O[C@@H](OCc3ccc(CO)cc3)C2)cc1,/,/,/,i,0.97,/,103
COc1cc(C(=O)Nc2ccc3c(c2)N(C(=O)CCN(C)C)c2ccccc2CC3)cc(OC)c1OC,-37,204,/,i,0.88,-5,103
O=C(NCCc1ccccc1)C1CCCN(C(=O)NC2CCCCC2)C1 (centres undefined),/,/,-1.5,i,0.8,-7,98
CCO[C@@H]1OC(C(=O)NCc2ccccc2)=C[C@H](c2ccccc2)[C@H]1CCCO,/,/,/,i,0.9,-5,94
Cc1cccc(NC(=O)Cn2c(=O)oc3ccccc32)c1,-87,84,-2.2,/,/,10,105
O=C(NC1CC(=O)c2sccc21)c1ccc(Cl)cc1Cl (centres undefined),/,/,/,i,0.9,-3,99
Cc1ccccc1NS(=O)(=O)c1cc(OCC(N)=O)c(C)cc1Cl,/,/,/,i,0.98,5,98
O=C(COC(=O)C1CCCCC1)Nc1ccc([N+](=O)[O-])cc1,/,/,/,i,0.95,6,99
O=C(COC(=O)c1ccccc1)NCc1ccco1,15,100,1.1,i,0.91,-5,97
Cc1onc(-c2ccccc2Cl)c1C(=O)N1CC(C)OC(C)C1 (centres undefined),55,48,-3.1,i,1.1,-7,104
COc1cc(C(=O)NCc2ccc3c(c2)cc(C)n3C)cc(OC)c1OC,-27,190,/,i,1.1,-1,97
CC(=O)Nc1ccc(S(=O)(=O)NNC(=O)COc2ccc(C(C)(C)C)cc2)cc1,-17,94,-2.0,i,0.88,-8,103
O=C(Nc1nc(-c2ccc3c(c2)OCO3)cs1)C1COc2ccccc2O1 (centres undefined),/,/,-1.4,i,0.95,2,95
O=C(COC(=O)c1cnccn1)c1ccccc1,-50,137,-1.6,/,/,-5,87
COc1ccc(S(=O)(=O)N[C@@H](CC(C)C)C(=O)O)cc1,/,/,-1.4,i,0.78,1,104
O=C(Cn1c(=O)oc2ccccc21)N1CCN(c2ccccc2)CC1,32,118,-2.1,i,0.92,-5,102
CC(CC(=O)O)C(=O)c1ccc(Cl)c([N+](=O)[O-])c1 (centres undefined),-7,136,/,i,0.99,-5,103
CCC(=O)Nc1cc(C(=O)O)ccc1Sc1ccccc1,-8,64,/,i,0.99,4,101
CC1=C(C(=O)OC(C)C)C(c2cccc([N+](=O)[O-])c2)n2c(cc(=O)[nH]c2=S)N1 (centres undefined),46,93,-0.1,i,0.99,-3,104
S=c1[nH]nc(-c2cccnc2)n1/N=C/c1cccs1,-9,133,-1.6,i,0.72,-2,97
CCOC(=O)N1CCC(NC(=O)c2ccc(CS(=O)(=O)c3ccc(OC)cc3)o2)CC1,/,/,-2.9,i,0.81,-8,109
COCC1CCN(Cc2cn[nH]c2-c2cc3ccccc3o2)C1 (centres undefined),-37,54,/,i,0.88,-15,106
CC(=O)Nc1ccccc1C(=O)C(=O)Nc1ccc(C(=O)NCC2CCCO2)cc1 (centres undefined),-7,67,/,i,1.1,-6,103
CCc1[nH]c(=O)c(C#N)c2c1CSC(C)(C)C2,-260,32,-1.2,i,0.85,-3,98
O=C(N/N=C/c1cccc(O)c1)c1ccc(COc2cccc3cccnc23)cc1,/,/,/,i,0.84,-4,91
CCn1cnc2c1c(=O)n(CC(=O)Nc1ccc(C(N)=O)cc1)c(=O)n2Cc1ccccc1,/,/,/,i,0.94,/,95
CSCCC(NC(=O)c1cncc(Br)c1)C(=O)O (centres undefined),-20,92,1.2,i,1.2,9,216
CCOC(=O)C1CCCN(C(=O)c2cc(-c3ccccc3)on2)C1 (centres undefined),0,96,-2.0,i,0.83,3,102
CN(CCC#N)C(=O)COC(=O)c1ccccc1C(=O)c1ccc(Cl)c([N+](=O)[O-])c1,-114,51,/,i,0.7,0,111

Results in RGS16-Gao HTS and PKD1 inh (5 entries from above):
Compound | RGS16-Gao HTS | PKD1 inh
COc1cc(C(=O)NCc2ccc3c(c2)cc(C)n3C)cc(OC)c1OC | 97 | -1
CC1=C(C(=O)OC(C)C)C(c2cccc([N+](=O)[O-])c2)n2c(cc(=O)[nH]c2=S)N1 (centres undefined) | 104 | -3
COc1ccc(S(=O)(=O)N[C@@H](CC(C)C)C(=O)O)cc1 | 104 | 1
CC(=O)Nc1ccccc1C(=O)C(=O)Nc1ccc(C(=O)NCC2CCCO2)cc1 (centres undefined) | 103 | -6
CCC(=O)Nc1cc(C(=O)O)ccc1Sc1ccccc1 | 101 | 4

Next section
SMILES,INS promoter inh,INS promoter inh cell count,GALR2 agonist,HSV replic up,HSV replic up primary fold,PKD1 inh,RGS16-Gao HTS
O=C(CS(=O)(=O)c1ccccc1)NCc1ccco1,-27,133,/,i,0.99,2,106
COc1ccccc1OCC(=O)N1CCNC1=O,/,/,-0.6,i,0.92,-9,106
O=C(NCCSC1CCCCC1)c1ccccc1,/,/,/,i,0.89,-5,99
CCN(CC)CCNC(=S)Nc1ccc2nc3n(c(=O)c2c1)CCCCC3,13,86,/,i,0.84,-4,98
O=C(O)c1ccc(NC(CSCc2cccc(F)c2)C(=O)O)c([N+](=O)[O-])c1 (centres undefined),4,123,0.5,i,0.7,-1,104
CC1CN(CN2C(=O)c3ccccc3C2=O)CC(C)O1 (centres undefined),-156,104,-1.4,i,1.1,-3,102
Cc1cc(C)cc(NC(=O)C2(c3ccccc3)CC2(Cl)Cl)c1 (centres undefined),-34,60,-2.5,i,0.79,-23,102
CCCN(CCC)S(=O)(=O)c1ccc(N2CCCC2=O)c([N+](=O)[O-])c1,17,121,-0.5,i,0.96,-7,106
CCCn1c(SCC(=O)/C(C#N)=C(\C)N)n[nH]c1=O,/,/,-2.5,i,0.86,2,100
CCOc1cc(/C=C(/C#N)c2ccc(F)cc2)ccc1OCc1ccc(C(=O)O)o1,-226,46,-0.6,i,0.87,-13,104
COc1ccc(N2C(=O)CCC(C(=O)O)C2c2ccc(OC)c(OC)c2)cc1 (centres undefined),-57,121,-0.8,i,0.84,7,99
COc1cc(-c2nc3n(n2)C(c2cccc(OC)c2OC)C2=C(CCCC2=O)N3)cc(OC)c1OC (centres undefined),29,128,-0.2,i,1,-3,96
CCN(CC)c1ccc2c(c1)OC(N)=C(C#N)C2c1cccnc1 (centres undefined),/,/,1.8,/,/,0,98
CCOc1ccc(Cc2c(Cl)nc(SC)nc2N(C)C)cc1,/,/,1.2,i,0.86,11,100
Nc1ccc(OCc2ccco2)cc1,-7,111,/,i,0.93,-6,100
O=C(Nc1ccc(C(O)(C(F)(F)F)C(F)(F)F)cc1)c1ccc(Cl)c([N+](=O)[O-])c1,55,119,0.5,i,0.85,2,107
Cc1ccc(OCC(=O)Sc2ccc(C)cc2)cc1,-25,86,1.2,i,1,6,102
COc1cc(C(=O)N(CCc2ccccc2)C2CC3CCC(C2)N3C)cc(OC)c1OC (centres undefined),/,/,-1.2,i,0.96,5,112
CC(C)c1onc(C(=O)NCc2ccccn2)c1[N+](=O)[O-],18,70,/,i,0.87,-8,105
CCOc1ccc(NC(=O)C2CSC(c3ccncc3)=N2)cc1 (centres undefined),-45,151,-0.2,i,0.96,5,113
COC(=O)C1CCN(c2ccc(C(N)=O)cc2[N+](=O)[O-])CC1,/,/,-2.0,i,1,-1,105
O=C(CCN1C(=O)C2C3C=CC(C4CC34)C2C1=O)Oc1ccc(Br)cc1 (centres undefined),/,/,/,i,0.91,-1,99
CNS(=O)(=O)c1ccc(N2CCCC2=O)c([N+](=O)[O-])c1,8,56,-2.2,i,0.96,-4,68
CCS(=O)(=O)N1CCC(NC(=O)c2cc(OC)cc(OC)c2)CC1,0,91,-0.2,i,0.84,-4,105
